Sa growth 42C = S. aureus growth inhibition; S. aureus RN4220 growth, OD600, 20 h, 42 °C; hits give low values; AID 720641; 0.53% of 170,000 active; relative growth, % (concentration not given with the values);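 active = growth at 42 °C up to 50% and 20 or more points under that at 30 °C, or under 10% at both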;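 also: 300 nL library stock went into each well; scaled to the means of positive and negative controls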
HCMV UL50-53 inh = cytomegalovirus nuclear egress complex inhibition. HTRF UL50-UL53 interaction, normalized percent inhibition. 0.15% of 190,000 active. inhibition, % (test concentration not listed);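 active = both replicates at 50% or more, plus weaker picks with an unusually low signal ratio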;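 also: stock transfer was 100 nL into about 20 µL; 0% = negative control wells and 100% = wells with untagged competitor protein; inactives centre near -12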
GIV-Gai inh = blocks GIV peptide binding to rat Galpha-i3; percent of control (FP), % (test concentration not listed); P08753; Galpha-i3/FITC-GIV peptide fluorescence polarization, 90 min; hits give low values; scaled: aluminum fluoride 0%, vehicle 100%; 0.42% of 210,000 active;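 active = replicate mean at 85% of control or lower, very high polarization wells dropped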;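 also: wells of about 15 µL received 100 nL stock; the first replicate is given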
Target sequence (P08753 whole entry, looked up): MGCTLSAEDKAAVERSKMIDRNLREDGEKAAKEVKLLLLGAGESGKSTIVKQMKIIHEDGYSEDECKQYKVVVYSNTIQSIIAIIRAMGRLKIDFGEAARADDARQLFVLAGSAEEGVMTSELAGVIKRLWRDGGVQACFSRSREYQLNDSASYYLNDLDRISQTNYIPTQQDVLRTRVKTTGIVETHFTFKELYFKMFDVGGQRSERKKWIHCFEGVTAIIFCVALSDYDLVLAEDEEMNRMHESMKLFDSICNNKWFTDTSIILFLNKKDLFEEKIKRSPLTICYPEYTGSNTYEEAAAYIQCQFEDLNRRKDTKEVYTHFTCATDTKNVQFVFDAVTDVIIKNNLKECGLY
Sa growth 42C second temp = further read-out of Sa growth 42C, marked with its call; relative growth, %; measured here: growth at 30 °C;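 optical density after 20 h as mean of two plates; 100% = untreated growth and lower means inhibition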
Starred values were filed as active, the others as inactive; x = no result given. This is a random part of the collection. About 0.82% of those tested had a hit in this group.

Value order: GIV-Gai inh	Sa growth 42C second temp	HCMV UL50-53 inh	Sa growth 42C
(1) COc1cccc(CNC(=O)c2ccc3nc(SCc4ccc(F)cc4)n(C)c3c2)c1
→ 105.0	91.2	x	126.3
(2) Clc1ccc(Cn2c(/N=C/c3ccc4c(c3)OCO4)nc3ccccc32)cc1
→ 102.1	93.9	x	124.3
(3) CCn1nc(C)c2[nH]c(=S)n(Cc3ccccc3Cl)c(=O)c21
→ 97.8	x	-28.2	x
(4) CC(=O)N(Cc1cc2cccc(C)c2[nH]c1=O)C(C)(C)C
→ 102.4	98.7	-8.8	77.8
(5) Cc1cc(C)c(S(=O)(=O)NCCc2ccncc2)c(C)c1
→ 102.9	100.7	13.6	98.9
(6) Cc1ccc(CN2C(=O)c3ccccc3Sc3ccc(C(=O)NCCN4CCOCC4)cc32)cc1
→ 102.6	86.1	x	114.8
(7) O=C1NCCCC1C(=O)Nc1cccc(C(F)(F)F)c1 (centres undefined)
→ 98.7	86.7	x	104.0
(8) CCOC(=O)c1cc(/C(C)=N/NS(=O)(=O)c2ccc(F)c(Cl)c2)on1
→ 100.3	41.4	-18.5	69.2
(9) CCn1cc2nc(SCc3cccc(OC)c3)n(Cc3ccc(Cl)cc3)c(=O)c2n1
→ 105.3	93.8	8.7	106.0
(10) COc1ccc(-c2nc3c(c(SCC(=O)N4CCCCC4)n2)Cc2cc(Cl)ccc2O3)cc1
→ 104.5	81.3	-6.5	111.6
(11) CCn1c(=O)n(CC)c2cc(N3CCCCC3)c(NC(=O)Nc3cc(C)cc(C)c3)cc21
→ 96.5	89.8	x	72.4
(12) NC(=O)COC(=O)c1cn(-c2ccccc2)nc1-c1ccccc1
→ x	94.0	3.6	105.1
(13) O=C(Cn1c(=O)n(Cc2ccccc2)c(=O)c2sc3ccccc3c21)NCc1ccccc1Cl
→ 110.4	86.7	22.6	99.7
(14) O=C(Cn1nc2c3ccccc3ncn2c1=O)Nc1cccc(Cl)c1
→ 100.0	x	8.7	x
(15) OC(CNC12CC3CC(CC(C3)C1)C2)COCc1ccco1 (centres undefined)
→ x	102.6	-4.5	103.4
(16) CCOC(=O)c1ccc(N2C(=O)c3[nH]nc(-c4ccc(OC)cc4)c3C2c2ccc(OC)cc2)cc1 (centres undefined)
→ 111.8	103.0	0.9	110.8
(17) CCC(=O)N1CCc2cc(S(=O)(=O)NCCC(=O)Nc3ccc(OC)c(Cl)c3)ccc21
→ 109.1	82.9	0.3	100.8
(18) Cc1ccc(C#N)o1
→ x	86.8	0.3	104.5
(19) CCC1CCc2c(sc(NC(=O)c3sc4ccccc4c3Cl)c2C(=O)OC)C1 (centres undefined)
→ 103.1	x	4.2	x
(20) Cc1cc(C(=O)NCCN2CCOCC2)no1
→ 100.6	x	-12.9	x
(21) O=C(N/N=C/c1ccco1)c1cccc(S(=O)(=O)Nc2cccc(Cl)c2)c1
→ x	92.1	-26.9	92.5
(22) Cc1ccc(C(=O)O)c2c1N[C@H](c1ccccc1Cl)C1CC=CC21 (some centres undefined)
→ 103.0	94.2	x	92.7
(23) O=C(O)C1CCCCC1C(=O)N1CCN(c2ccccn2)CC1 (centres undefined)
→ 101.2	97.1	-25.9	107.2
(24) CCOC(=O)CN1C(C(=O)c2ccccc2)=C(OC(=O)C(C)(C)C)c2ccccc2S1(=O)=O
→ 100.4	92.2	4.3	103.1
(25) COc1ccccc1CN(C)Cc1nc(N)nc(Nc2ccccc2C)n1
→ x	83.1	-27.4	90.7
(26) CNC(=O)N1CCCC(c2cccc(C(=O)N3CCCC3)c2)C1 (centres undefined)
→ 107.0	x	-23.9	x
(27) CC1=CC(=O)C(C(=O)/C=C/c2cc3ccccc3nc2N2CCOCC2)C(=O)O1 (centres undefined)
→ x	88.8	-21.8	84.4
(28) CC1CC(C)CN(C(=O)C2CCN(S(=O)(=O)c3ccc4c(c3)C(C)(C)C(=O)N4C)CC2)C1 (centres undefined)
→ 106.7	x	0.3	x
(29) COc1ccc(CC(=O)NCC(c2ccc(N(C)C)cc2)N2CCOCC2)cc1 (centres undefined)
→ 97.6	88.7	x	104.0
(30) CC1CCCC(NC(=O)Cn2c3ccccc3c3cn[nH]c(=O)c32)C1C (centres undefined)
→ 100.1	92.1	-12.5	112.4

One compound at a time, as listed above:
CNC(=O)N1CCCC(c2cccc(C(=O)N3CCCC3)c2)C1 (centres undefined) as listed: GIV-Gai inh: 107.0; Sa growth 42C second temp: x; HCMV UL50-53 inh: -23.9; Sa growth 42C: x
CCC(=O)N1CCc2cc(S(=O)(=O)NCCC(=O)Nc3ccc(OC)c(Cl)c3)ccc21 as listed: GIV-Gai inh: 109.1; Sa growth 42C second temp: 82.9; HCMV UL50-53 inh: 0.3; Sa growth 42C: 100.8

Continued:
Value order: GIV-Gai inh	Sa growth 42C second temp	HCMV UL50-53 inh	Sa growth 42C
(31) CN(C)S(=O)(=O)c1cccc(COC(=O)c2cccnc2Cl)c1
→ x	98.1	-2.5	98.7
(32) Cc1ccc(-c2noc(-c3ccc(N4CCCCC4C)c([N+](=O)[O-])c3)n2)cc1 (centres undefined)
→ 102.0	90.9	-11.7	104.0
(33) COc1ccc(-n2cnnc2SCc2cnc(-c3ccccc3)s2)cc1
→ x	89.3	-23.5	112.4
(34) COc1cccc(-c2cc(C(=O)N3CCN(c4cc(C)ccc4C)CC3)[nH]n2)c1
→ 104.2	89.5	x	126.8
(35) N#Cc1nc2n(c1C#N)CN(CCc1ccc(Cl)cc1Cl)CN2
→ x	101.8	-3.9	110.2
(36) Cc1ccc2cc(C(=O)O)[nH]c2c1
→ 106.5	96.6	4.9	96.5
(37) O=C(Nc1ccccc1Cl)c1ccc(-n2cnnc2)cc1Cl
→ 100.4	92.3	-8.5	97.5
(38) Cc1cc(-c2nc(C34CC5CC(CC(C5)C3)C4)cs2)no1
→ 109.7	88.2	-24.6	99.9
(39) CCc1nn2c(C(=O)NCc3ccccc3)cc(=O)nc2s1
→ 108.8	87.0	-2.3	76.6
(40) Cc1c(N2CCN(C(=O)CC(C)C)CC2)c(=O)n(C)c(=O)n1-c1ccccc1
→ 107.8	x	-24.8	x
(41) COc1ccc(C2CC(C(F)(F)F)n3nc(C(=O)Nc4ccc(F)cc4F)c(Cl)c3N2)cc1OC (centres undefined)
→ 92.4	x	-23.7	x
(42) Cc1cccc2cc(-c3noc(-c4ccccc4)n3)c(N(C)C)nc12
→ 100.0	x	3.0	x
(43) CC(C)NC(=O)CSc1nnc(-c2ccc3c(c2)OCO3)o1
→ x	85.7	-5.6	96.8
(44) Cn1nnnc1SCCCNCc1cc(Br)ccc1OCc1ccccc1
→ 98.6	72.0	-32.2	103.0
(45) O=c1c2oc3ccccc3c2n(Cc2ccccc2)c(=O)n1Cc1ccc2c(c1)OCO2
→ 104.5	97.7	x	110.3
(46) CCc1cccc(NC(=O)[C@@H]2CCCN2C2=NS(=O)(=O)c3ccccc32)c1
→ x	100.4	22.3	92.3
(47) CCCNc1nc2ccccn2c(=O)c1/C=C1\SC(=S)NC1=O
→ 265.7	96.8	x	114.8
(48) O=C(NCC(c1ccc(Cl)cc1)N1CCOCC1)c1ccccc1 (centres undefined)
→ 104.3	82.3	-26.1	87.1
(49) Cn1ncc(Br)c1-c1cccc(NC(=O)COCC(=O)O)c1
→ 98.1	87.4	-22.0	91.5
(50) O=C(Nc1ccccc1NC(=O)c1cccs1)c1cccs1
→ 106.4	100.8	-40.2	80.1
(51) CCOC(=O)N1N=C(C)CC1(O)c1ccccc1 (centres undefined)
→ 102.2	88.8	-22.2	88.3
(52) CCOc1cc(/C=c2/sc3nc4ccccc4n3c2=O)cc(Br)c1O
→ 134.2	x	-8.1	x
(53) Cc1ccc2onc(CNC(=O)N3CCN(Cc4ccc5c(c4)OCO5)CC3)c2c1
→ 99.4	87.2	-32.0	104.5
(54) C=CCN(CC=C)C(=O)c1c(-c2ccccc2Cl)noc1C
→ 99.1	77.3	18.2	126.8
(55) Cc1ccc(S(=O)(=O)Nc2cc3c(cc2N2CCOCC2)n(C)c(=O)c(=O)n3C)cc1
→ 96.2	86.6	-52.2	91.0
(56) NS(=O)(=O)c1ccc(CCNC(=O)c2ccc(-n3nnc4cccnc43)cc2)cc1
→ 115.0	x	-33.1	x

Nos. 31–49 of the list above:
Value order: GIV-Gai inh	Sa growth 42C second temp	HCMV UL50-53 inh	Sa growth 42C
(31) CN(C)S(=O)(=O)c1cccc(COC(=O)c2cccnc2Cl)c1
→ x	98.1	-2.5	98.7
(32) Cc1ccc(-c2noc(-c3ccc(N4CCCCC4C)c([N+](=O)[O-])c3)n2)cc1 (centres undefined)
→ 102.0	90.9	-11.7	104.0
(33) COc1ccc(-n2cnnc2SCc2cnc(-c3ccccc3)s2)cc1
→ x	89.3	-23.5	112.4
(34) COc1cccc(-c2cc(C(=O)N3CCN(c4cc(C)ccc4C)CC3)[nH]n2)c1
→ 104.2	89.5	x	126.8
(35) N#Cc1nc2n(c1C#N)CN(CCc1ccc(Cl)cc1Cl)CN2
→ x	101.8	-3.9	110.2
(36) Cc1ccc2cc(C(=O)O)[nH]c2c1
→ 106.5	96.6	4.9	96.5
(37) O=C(Nc1ccccc1Cl)c1ccc(-n2cnnc2)cc1Cl
→ 100.4	92.3	-8.5	97.5
(38) Cc1cc(-c2nc(C34CC5CC(CC(C5)C3)C4)cs2)no1
→ 109.7	88.2	-24.6	99.9
(39) CCc1nn2c(C(=O)NCc3ccccc3)cc(=O)nc2s1
→ 108.8	87.0	-2.3	76.6
(40) Cc1c(N2CCN(C(=O)CC(C)C)CC2)c(=O)n(C)c(=O)n1-c1ccccc1
→ 107.8	x	-24.8	x
(41) COc1ccc(C2CC(C(F)(F)F)n3nc(C(=O)Nc4ccc(F)cc4F)c(Cl)c3N2)cc1OC (centres undefined)
→ 92.4	x	-23.7	x
(42) Cc1cccc2cc(-c3noc(-c4ccccc4)n3)c(N(C)C)nc12
→ 100.0	x	3.0	x
(43) CC(C)NC(=O)CSc1nnc(-c2ccc3c(c2)OCO3)o1
→ x	85.7	-5.6	96.8
(44) Cn1nnnc1SCCCNCc1cc(Br)ccc1OCc1ccccc1
→ 98.6	72.0	-32.2	103.0
(45) O=c1c2oc3ccccc3c2n(Cc2ccccc2)c(=O)n1Cc1ccc2c(c1)OCO2
→ 104.5	97.7	x	110.3
(46) CCc1cccc(NC(=O)[C@@H]2CCCN2C2=NS(=O)(=O)c3ccccc32)c1
→ x	100.4	22.3	92.3
(47) CCCNc1nc2ccccn2c(=O)c1/C=C1\SC(=S)NC1=O
→ 265.7	96.8	x	114.8
(48) O=C(NCC(c1ccc(Cl)cc1)N1CCOCC1)c1ccccc1 (centres undefined)
→ 104.3	82.3	-26.1	87.1
(49) Cn1ncc(Br)c1-c1cccc(NC(=O)COCC(=O)O)c1
→ 98.1	87.4	-22.0	91.5

Source: PubChem (ICCB-Longwood Screening Facility, Harvard Medical School)
